Sfp inh: Sfp phosphopantetheinyl transferase inhibition; Potency, µM, inactives show max response, negative = inhibition, most hits filed as inhibitors; actives 3.5% (n = 310,000); Biochemical Sfp PPTase activity, qHTS; Q9F4F7; active = well fitted inhibition curve with a large enough effect; inconclusive = small, poorly fitted or top-dose-only effect, or another doubt; inactive = no such curve, though single readings can be large or run the other way;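 also: the enzyme is Sfp with the accession as filed and its product quenches rhodamine fluorescence; potency is read from the fitted curve at half-maximal effect; 0% = enzyme reaction without inhibitor and -100% = no enzyme wells; top concentration of the series not given in the record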
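Reaction rates are the 30-min fluorescence difference (ex 525, em 598 nm) in wells containing 15 nM Sfp, 5 uM rhodamine-CoA and 12.5 uM BHQ-2-YbbR at pH 7.6 with 10 mM MgCl2.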
ClpP mod: qHTS Assay for Activators of ClpP | purified B. subtilis ClpP, FRET peptide cleavage, 20 min | actives 1.9% (n = 340,000) | Potency, µM (highest dose often 57.5 µM), without a hit: at the highest dose activity change, negative = active | ATP-dependent Clp protease proteolytic subunit (Bacillus subtilis (strain 168)), P80244; active = well fitted falling curve with a large enough effect; inconclusive = small, poorly fitted or top-dose-only effect; inactive = no such curve, though single readings can be large or run the other way; also: potency is read from the fitted curve at half-maximal effect; the source files actives as falling curves though it sought activators and does not explain the sign; nearly all actives have a fitted effect of over 65% in size; many hits overshoot -100%
Target sequence (P80244 whole entry, looked up): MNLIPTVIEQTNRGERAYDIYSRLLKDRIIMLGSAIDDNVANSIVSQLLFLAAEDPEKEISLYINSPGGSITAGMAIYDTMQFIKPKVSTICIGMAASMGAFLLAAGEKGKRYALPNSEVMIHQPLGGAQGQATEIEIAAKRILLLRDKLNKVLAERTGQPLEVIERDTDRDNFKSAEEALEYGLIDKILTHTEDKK
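ClpP 10 microg/mL final, pH 8 Tris/KCl buffer with BSA, glycerol, Tween-20; compound pinned in; FRET-FV substrate; RT 20 min; Ex320/Em430; ΔFRET vs ADEP 5.8 microM, DMSO, no enzyme.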
TRPML1 inh: blocks the human TRPML1 channel; Q9GZU1; TRPML1-inducible cells, Ca2+ dye fluorescence, FDSS; hits give low values; inhibition of EC80 agonist-evoked calcium signal; activity change, negative = inhibition, % (no concentration beside the values); actives 0.02% (n = 390,000); in the data active means activity change below about -50%; inconclusive means about -30% to -50%; inactive means above about -30%;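 also: stimulus is agonist 54-4 at its EC80 concentration; % is scaled to controls: 0 for no effect and ±100 for the full control effect; compound concentration not given in the record; the text of the record puts the active cut at -80%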
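Calcium fluorescence in TRPML1-DL cells induced overnight with Tet: a 110 s read after compound pin addition, then a 110 s antagonist read after challenge with 54-4 at 4 uM final (EC80).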
gsp antagonist: antagonizes gsp, the McCune-Albright syndrome mutation; gsp-mutant cells, cAMP HTRF, 30 min; control for the full effect not named in the record; Potency, µM (highest dose often 76.9 µM), for the others: at the highest dose activity change, negative = inhibition, usual class: inhibitors; actives 0.4% (n = 340,000); AID 624288; active = falling curve of any shape with a large fitted effect; inconclusive = falling curve, mostly with a smaller effect; inactive = flat or rising curve; cell line not stated here;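 also: intracellular cAMP measured with PDE inhibitor Ro 20-1724 present during compound exposure; potency is read from the fitted curve at half-maximal effect; % is scaled to controls: 0 for no effect and ±100 for the full control effect; nearly all actives have a fitted effect of over 65% in size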
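Measurement of cellular cAMP by homogeneous time-resolved fluorescence following a 30 min compound exposure at 37C. The PDE inhibitor […] was present throughout; the assay buffer was DPBS with 0.05% BSA and 0.005% Tween 20.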
TRPV1 potentiator: human TRPV1 potentiation | Q8NER1 | TRPV1-expressing cells, Fluo-8 calcium influx, capsaicin EC20 potentiation; host cell line not named in the record; control for the full effect not named in the record | potentiation, % at 8.33 µM | actives 0.02% (n = 320,000); active means potentiation above 80%; inconclusive means 30% to 80%; inactive means below 30%; also: 0% is about no effect
Target sequence (Q8NER1 whole entry, looked up): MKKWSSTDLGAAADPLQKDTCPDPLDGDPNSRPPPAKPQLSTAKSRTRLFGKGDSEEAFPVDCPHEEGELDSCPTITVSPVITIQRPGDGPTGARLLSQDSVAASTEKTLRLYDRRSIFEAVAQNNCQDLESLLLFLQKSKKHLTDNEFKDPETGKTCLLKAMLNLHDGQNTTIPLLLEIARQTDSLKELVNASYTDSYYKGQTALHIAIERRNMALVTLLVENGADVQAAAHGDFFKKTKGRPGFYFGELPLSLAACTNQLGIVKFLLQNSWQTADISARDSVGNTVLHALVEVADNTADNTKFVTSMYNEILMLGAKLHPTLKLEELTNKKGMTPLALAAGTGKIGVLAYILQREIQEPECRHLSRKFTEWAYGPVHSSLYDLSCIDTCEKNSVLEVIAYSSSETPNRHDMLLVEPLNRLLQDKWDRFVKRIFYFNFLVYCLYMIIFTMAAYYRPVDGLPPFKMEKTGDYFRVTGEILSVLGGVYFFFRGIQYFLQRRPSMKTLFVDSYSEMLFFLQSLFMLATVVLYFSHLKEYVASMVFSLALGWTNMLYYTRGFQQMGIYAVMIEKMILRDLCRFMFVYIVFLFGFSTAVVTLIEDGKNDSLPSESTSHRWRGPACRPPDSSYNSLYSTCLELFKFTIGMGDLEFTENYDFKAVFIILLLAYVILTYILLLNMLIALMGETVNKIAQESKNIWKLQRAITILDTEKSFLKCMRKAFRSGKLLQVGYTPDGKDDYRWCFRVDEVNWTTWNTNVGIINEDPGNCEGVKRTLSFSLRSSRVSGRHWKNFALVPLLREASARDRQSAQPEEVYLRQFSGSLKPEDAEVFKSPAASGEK
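Fluo-8 calcium influx in TRPV1-expressing cells, kinetic read (ex 480/em 520 nm). Compound added and read 3 min for agonist activity, followed by capsaicin at EC20 final and 2 min further read for enhancement.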
Menin-MLL FL inh: displaces fluorescein MLL peptide from human menin; Fluorescence polarization, fluorescein-MLL peptide displacement from menin; FP activity change, % at 61.4 µM; 290,000 tested, under 10 active; inconclusive = falling polarisation curve, or a change in total fluorescence; inactive = total fluorescence flat and polarisation flat or rising; no compound was filed as active; the % refers to the polarisation; negative = inhibition;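 also: % of control where 0% means no effect; inhibitors lower the polarisation; unlabelled MLL peptide was the positive control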
gsp agonist: agonists of gsp mutant (McCune-Albright syndrome); gsp mutant cells, cAMP HTRF, 30 min; control for the full effect not named in the record; Potency, µM (top dose mostly 76.9 µM), inactives show at the highest dose activation (cAMP increase), hits mostly activators; actives 0.13% (n = 340,000); active = well fitted activation curve with a large enough effect; inconclusive = small, poorly fitted or top-dose-only effect, or another doubt; inactive = no such curve, though single readings can be large or run the other way; cell line not stated here;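 also: phosphodiesterase inhibitor Ro 20-1724 added with compounds to block cAMP breakdown; potency is read from the fitted curve at half-maximal effect; nearly all actives have a fitted effect of over 60% in size; about a fifth of the inactives were tested at one dose only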
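Cells stably selected in G418 were plated at 2000/well, grown 16-24 hr, then given compounds in DMSO with the PDE inhibitor […] (300 uM solution added) for 30 min at 37C; cAMP was read by HTRF.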
Active calls of the source: *; ? = inconclusive; nt = no result given; [ ] = remark or other dose. This is a random part of the collection; 4.9% or so of the library scored in one or more.

Structure | Sfp inh | ClpP mod | TRPML1 inh | gsp antagonist | TRPV1 potentiator | Menin-MLL FL inh | gsp agonist
Cc1nn(CC(=O)N2CC(=O)Nc3ccccc32)c(C)c1[N+](=O)[O-] | 19% | nt | 36 | nt | -10 | -1.4 | 1%[15.4 µM]
Cc1ccc(NC(=O)c2ccc3[nH]c(=O)c(=O)[nH]c3c2)nc1 | 17% | -30% | -2 | -2% | -9 | 1.3 | ?
COc1ccc(CN(C)C[C@H]2OCCCC[C@H](C)Oc3ccc(NC(=O)CCC(F)(F)F)cc3C(=O)N([C@@H](C)CO)C[C@@H]2C)cc1 | nt | 1.7% | 6 | nt | nt | nt | 2%
CC(=O)c1cc(C#N)c(SCc2ccc([N+](=O)[O-])cc2)nc1C | 7% | 0.1% | -6 | 9% | 1 | -1.9 | -49%[inhibitor]
Cc1ccc(C2=Nc3ccccc3N=C(C(Cl)Cl)C2)cc1 | -23% | nt | -18 | -26% | -11 | 11 | -22%
Cc1[nH]c2ccccc2c1C=NNC(=O)c1cc(-c2cccnc2)nc2ccccc12 | nt | -1.7% | -9 | -24% | nt | nt | 17%
COc1ccc(C(=O)NC2CC2)cc1OC1CCN(C(C)CSC)CC1 (stereo not given) | 11% | -1.3% | 10 | 13% | -16 | -7.5 | -14%
O=C(Nc1ccc(Cl)c(C(F)(F)F)c1)N1CCCC(O)C1 (stereo not given) | -19% | -1.1% | 2 | 3% | -3 | -1.5 | -24%
O=C(c1cc([N+](=O)[O-])ccc1N1CCCCC1)N1CCc2ccccc21 | -2% | nt | 12 | 23% | -16 | 4.0 | 0%
Cc1ccc(N(CC(=O)NC2CCCCC2)C(=O)CNC(=O)c2ccco2)cc1C | 17% | nt | 1 | nt | 15 | -0.2 | 17%[15.4 µM]
CN(c1ccc(O)cc1)c1nc(-c2cccs2)cs1 | -2% | nt | -10 | ? | -8 | 1.8 | -38%[15.4 µM]
COc1ccc(NS(=O)(=O)c2cc(NC(=O)CCc3ccc(OC)c(OC)c3)ccc2N2CCOCC2)cc1 | nt | -0.1% | 18 | -15% | nt | nt | 19%
COc1cccc(NC(=O)N2C3CCCC2CC(NC(=O)C(C)(C)C)C3)c1 (stereo not given) | -2% | -1.6% | -10 | 1% | ? | 2.0 | ?
Cc1ccc2nc(Cl)nc(-c3ccccc3)c2c1 | 0% | nt | -17 | -8% | 11 | -6.8 | 8%[15.4 µM]
O=C(CSc1nc2ccc(NC(=O)C3CCCCC3)cc2s1)NCC1CCCO1 (stereo not given) | 0% | -3.8% | -2 | -10% | -17 | 1.1 | -39%[inhibitor]
Cc1ccc(N=Cc2c(O)c3ccccc3oc2=O)cc1F | 8% | -4.0% | 26 | 4% | -14 | -3.8 | 8%
S=C(NCCCc1ccccc1)NCc1ccccc1 | 15% | -1.0% | 7 | 0% | 3 | nt | 27%
O=C(/C=C/c1ccc(Cl)c(Cl)c1)NCCCn1ccnc1 | 19% | nt | 4 | 1% | 4 | 4.3 | -53%[inhibitor]
C[C@@H](NC(=O)CN1C(=O)c2ccccc2S1(=O)=O)c1ccccc1 | 5% | -2.2% | 2 | -6% | 3 | 3.1 | 9%
Cc1nc2ccc([N+](=O)[O-])cc2c(=O)n1Cc1ccccc1Br | -1% | 41% | 57 | -28% | -5 | 6.9 | 4%[15.4 µM]
O=C(CCN1C(=O)c2ccccc2C1=O)Nc1cccc(S(=O)(=O)N2CCCCC2)c1 | 2% | -0.2% | 4 | -13% | 1 | 2.9 | 7%
Cn1c(Cn2cnc3ccccc32)nc2ccccc21 | 18% | 0.0% | 0 | -21% | -3 | 0.8 | ?
CCOc1cccc(=O)c2c(C)oc(C)c12 | -6% | -1.1% | 2 | -9% | 0 | ? | 1%
CCCN(CC(=O)Nc1ccc(Cl)cc1Cl)C(=O)/C=C/c1ccco1 | 1% | -6.1% | -17 | -1% | 0 | 3.3 | 0%
COC(=O)c1cc2occc2n1CC(=O)Nc1cc(OC)cc(OC)c1 | 8% | -0.4% | -22 | 4% | 11 | -1.2 | -15%

Some of these compounds in order of molar mass, low to high:
Structure | Sfp inh | ClpP mod | TRPML1 inh | gsp antagonist | TRPV1 potentiator | Menin-MLL FL inh | gsp agonist
CN(c1ccc(O)cc1)c1nc(-c2cccs2)cs1 | -2% | nt | -10 | ? | -8 | 1.8 | -38%[15.4 µM]
Cc1ccc(NC(=O)c2ccc3[nH]c(=O)c(=O)[nH]c3c2)nc1 | 17% | -30% | -2 | -2% | -9 | 1.3 | ?
COC(=O)c1cc2occc2n1CC(=O)Nc1cc(OC)cc(OC)c1 | 8% | -0.4% | -22 | 4% | 11 | -1.2 | -15%
COc1cccc(NC(=O)N2C3CCCC2CC(NC(=O)C(C)(C)C)C3)c1 (stereo not given) | -2% | -1.6% | -10 | 1% | ? | 2.0 | ?
Cc1ccc(N(CC(=O)NC2CCCCC2)C(=O)CNC(=O)c2ccco2)cc1C | 17% | nt | 1 | nt | 15 | -0.2 | 17%[15.4 µM]
COc1ccc(NS(=O)(=O)c2cc(NC(=O)CCc3ccc(OC)c(OC)c3)ccc2N2CCOCC2)cc1 | nt | -0.1% | 18 | -15% | nt | nt | 19%

(continued)
Structure | Sfp inh | ClpP mod | TRPML1 inh | gsp antagonist | TRPV1 potentiator | Menin-MLL FL inh | gsp agonist
COc1ccc(CNC(=O)COC(=O)c2ccc(Br)cc2)cc1 | -14% | -1.2% | -5 | -4% | -13 | 0.7 | -1%
CCS(=O)(=O)N1Cc2ccccc2CC1C(=O)Nc1ccc(F)c(F)c1 (stereo not given) | 21% | nt | -20 | 2% | 10 | 0.1 | -10%
O=C(NC1CCCC1)C(c1cccs1)N(CC1CCCO1)C(=O)Cc1cccs1 (stereo not given) | -8% | -0.8% | 10 | 5% | -5 | 6.5 | ?
CCOCCCNC(=S)N1CCC(C(=O)c2ccc(C)cc2)CC1 | 10% | 32µM* | -3 | 0% | 0 | 3.9 | -21%[15.4 µM]
CCOc1cccc(/C=N/N2C(C)CCCC2C)c1O (stereo not given) | 2% | -1.4% | -9 | -8% | 16 | -8.4 | 16%
O=C(C1=C[C@@H](C2CCCCC2)C[C@@H](OCc2ccc(CO)cc2)O1)N1CCN(Cc2ccc3c(c2)OCO3)CC1 | 0% | 1.3% | 3 | ? | -14 | 4.3 | nt
CCn1c(C(C)NC(=O)c2ccc(Cl)cc2)n[nH]c1=S (stereo not given) | ? | nt | 9 | -11% | ? | -0.2 | 22%[15.4 µM]
CCOC(=O)c1c(NC2=NS(=O)(=O)c3ccccc32)sc2c1CCC(C)C2 (stereo not given) | 25% | -2.6% | -2 | -18% | 3 | 2.1 | -5%
COc1cc(/C=N/NS(=O)(=O)c2ccc(C(C)(C)C)cc2)cc([N+](=O)[O-])c1O | -5% | nt | 19 | nt | 4 | 0.9 | -15%[15.4 µM]
O=C(Oc1c(Br)cc([N+](=O)[O-])cc1Br)c1cccnc1 | 4% | nt | -5 | -16% | -4 | 0.3 | -8%[15.4 µM]
Cc1ccc(O)c(NC(=O)C2CCCCC2)c1 | -5% | nt | -3 | 11% | nt | 3.5 | ?
Cc1ccc(C(=O)N2CCC3(CC2)Oc2ccc(Cl)cc2C(=O)C32CC(c3ccc(Cl)cc3)=NO2)s1 (stereo not given) | -7% | -0.2% | -1 | 7% | ? | 2.9 | nt
CC(C)CSC1=NSC2=NC(=O)/C(=C\c3cccs3)C(=N)N12 | 23% | -1.2% | -7 | -13% | 15 | 11 | -15%[15.4 µM]
CCOc1ccc(N(C)S(=O)(=O)c2ccc3[nH]cc(C(=O)NCCOC)c(=O)c3c2)cc1 | 6% | -19% | -1 | -2% | 1 | 0.6 | 4%[15.4 µM]
COC(=O)[C@@]12CCCN1[C@H](c1ccc(-c3ccc(OC)cc3)c(OC)c1)[C@H]1C(=O)N(C)C(=O)[C@H]12 | nt | -6.1% | -7 | -15% | -2 | nt | 2%
Cc1cc(C)cc(C(=O)NCC(=O)OCC(=O)N2c3ccccc3NC(=O)C2(C)C)c1 | 1% | nt | -8 | -4% | -2 | 2.9 | 15%
CCc1cc2cccc(C)c2nc1SCC(=O)Nc1cc(C)on1 | 15% | nt | 9 | -4% | 10 | 2.1 | ?
CC(C)C1CC(c2ccccc2)(C(CN)CO)CCO1 (stereo not given) | 25% | nt | 23 | 11% | -7 | -3.1 | -1%[15.4 µM]
COc1ccc(-c2nnc(SCc3c(C)noc3C)n2N)cc1OC | 1% | -7.3% | -2 | -4% | 12 | 3.9 | -1%
O=C1CC(c2ccco2)CC(O)=C1C=Nc1cc(Cl)cc(Cl)c1 (stereo not given) | 40µM* | -6.0% | 0 | 4%[15.4 µM] | 24 | 6.8 | 3%
COc1ccc2c(c1)[C@H]1[C@H](CO2)[C@H](c2ccccc2)[C@]2(C)C(=O)N[C@H](C)C(=O)N12 | nt | -1.6% | -6 | -2% | -11 | nt | ?
Cc1ccc([N+](=O)[O-])cc1S(=O)(=O)Nc1cccc(-c2ccc(N3CCOCC3)nn2)c1 | nt | nt | 14 | ? | 5 | nt | -10%[15.4 µM]
CCn1c(SCC(=O)Nc2sc3c(c2C#N)CCCC3)nnc1-c1ccco1 | -28% | 2.4% | 13 | -28% | 18 | -0.3 | -5%
O=C(O)c1ccc(N=Cc2nc(-c3ccco3)oc2O)cc1 | 13% | -5.1% | 7 | ? | -36 | -2.6 | -25%
COc1ccc(NC(=O)CN2CCN(C(=O)N3CCOCC3)CC2)cc1 | 0% | nt | 23 | 5% | 9 | -6.9 | -12%
CCc1ccc(-n2c(=O)c3c(C)c(C(=O)N(C)C)sc3n(CC(=O)NCc3ccco3)c2=O)cc1 | -9% | -0.3% | 2 | 8% | -2 | 0.5 | 2%
O=C(NCc1ccc2c(c1)OCO2)c1ccco1 | 26% | 0.1% | 2 | 3% | 10 | -2.2 | 19%

Source: PubChem
